Rango-impB inh – Rango-importin beta binding inhibition; Rango CFP/YFP FRET sensor + importin beta, 45 min; Potency, µM (series often up to 92.2 µM), without a hit: top-dose inhibition of complex formation; 0.031% of 340,000 active; AID 540263; active = rising FRET ratio curve, often small or poorly fitted; inconclusive = mostly compound fluorescence or quenching in the first reads; inactive = flat curves in all reads;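 also: potency is read from the fitted curve at half-maximal effect; 0% = DMSO wells and 100% = buffer wells lacking importin beta; nearly all actives have a fitted effect of over 15% in size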
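Inhibition scored from the CFP 486 nm/YFP 530 nm FRET ratio 45 min after adding 0.125 microM importin beta to 50 nM Rango biosensor preincubated 5 min with compound (room temperature, PBS with DTT, Tween-20, BSA). No-importin wells as positive control.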
GLA inh pH 4.5 – alpha-galactosidase A (human) inhibition, pH 4.5. purified enzyme, 4-MU-alpha-Gal fluorescence, pH 4.5. activity change, negative = inhibition, % at 105 µM. 230,000 tested, under 10 active; inconclusive = small, poorly fitted or top-dose-only inhibition, or a rising curve; inactive = flat fitted curve, though single readings scatter; no compound was filed as active;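 also: 0% = full activity with enzyme and -100% = basal without enzyme; dose as in the result columns while the protocol names 77 µM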
Target sequence (P06280 whole entry, looked up): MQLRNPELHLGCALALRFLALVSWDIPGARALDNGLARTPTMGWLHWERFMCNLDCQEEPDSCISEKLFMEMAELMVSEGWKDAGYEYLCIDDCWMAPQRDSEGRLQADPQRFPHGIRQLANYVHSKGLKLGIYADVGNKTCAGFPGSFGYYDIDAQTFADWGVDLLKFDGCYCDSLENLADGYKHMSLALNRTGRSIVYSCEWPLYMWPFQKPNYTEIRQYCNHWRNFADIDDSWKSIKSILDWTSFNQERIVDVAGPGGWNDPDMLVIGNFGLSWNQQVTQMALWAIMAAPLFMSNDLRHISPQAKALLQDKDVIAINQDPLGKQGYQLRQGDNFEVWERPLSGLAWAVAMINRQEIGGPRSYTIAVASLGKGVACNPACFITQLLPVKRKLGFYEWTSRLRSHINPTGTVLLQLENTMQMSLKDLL
Rango release inh – inhibitors of RanGTP-induced Rango-importin beta complex dissociation | O95149+P62826 | Biochemical FRET Rango-importin beta, RanGTP-induced dissociation | Potency, µM (top dose mostly 46.1 µM), without a hit: at the highest dose activity change, negative = inhibition | 0.071% of 340,000 active; active means falling FRET ratio curve, often poorly fitted, with flat reads before Ran was added; inconclusive means other falling curves, or compound fluorescence or quenching; inactive means flat or rising ratio curve;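 also: potency is read from the fitted curve at half-maximal effect; % of control where 0% means no effect; nearly all actives have a fitted effect of over 45% in size; -100% = wells without RanGTP and RCC1; the record marks most hits as doubtful in a second field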
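Rango (0.1 uM)–importin beta (0.25 uM) complex; RanGTP-RCC1 trigger; 45 min RT; CFP/YFP FRET read.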
miR-21 reporter – miR-21 reporter, rising signal; HeLa miR-21 FLuc reporter, luciferase, 48 h; Potency, µM (highest dose often 38.3 µM), for the others: top-dose reporter change, positive = more light; 340,000 tested, under 10 active; active = well fitted rising curve with a large enough effect; inconclusive = small, poorly fitted or top-dose-only effect; inactive = no such curve, though single readings can be large or run the other way;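 also: % of control where 0% means no effect; miR-21 action dims this reporter so a rising signal means less miR-21 action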
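HeLa cells stably expressing CMV-driven firefly luciferase with a downstream miR-21 binding sequence, endogenously expressing miR-21, were treated with titrations (up to about 40uM final) for 48 hours at 37 degree Celsius. Luciferase luminescence was read after lysis.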
Active calls of the source: *; u = inconclusive; x = not tested or not shown; & = joins results of further samples.

Value order: Rango-impB inh | Rango release inh | GLA inh pH 4.5 | miR-21 reporter
COc1cc(/C=N/NC(=O)C23CC4CC(CC(C4)C2)C3)cc(Br)c1O
→ 1.4% | -8% | -3 | -10%
COc1ccc(NC(=O)C2CCC(CNc3c(N4CCC(C)CC4)c(=O)c3=O)CC2)cc1OC (configuration not stated)
→ 4.6%&-2.7% | -8%&40% | 0 | -13%
CCc1ccc(N2CC34C=CC(O3)C(C(=O)OC)C4C2=O)cc1 (configuration not stated)
→ 3.3% | 8% | -1 | -9%
CCCn1c(SCC(=O)NC2CC2)nnc1-c1cccs1
→ 0.7% | -17% | x | -3%
O=C(Nc1ccc(F)cc1)c1ccc(S(=O)(=O)N2CCCC2)cc1
→ 2.2% | 37% | x | -7%
O=S(=O)(Nc1ccc(N2CCCCC2)cc1)c1ccc(F)cc1F
→ u | 5% | -1 | -12%
O=C(NCC1CCCO1)Nc1ccc(Cl)cc1 (configuration not stated)
→ -0.7% | 0% | 1 | -26%
CC1CCCCC1NC1=NCCCS1 (configuration not stated)
→ x | x | 5 | -2%
Cc1cnc(C(=O)Nc2ccc(N3CCOCC3)cc2)cn1
→ 0.8% | -3% | -16 | -49%
Cc1nc(N2CCOCC2)nc2c1CCC2
→ 5.2% | 0% | -5 | -4%
O=C(N/N=C/c1ccccn1)c1ccc(Cl)cc1
→ 0.9% | 18% | x | -45%
COc1cc(NC(=S)NCc2cccnc2)cc(OC)c1
→ -2.7% | 1% | 3 | 2%
Cc1nn(Cc2ccccc2)c(N)c1C#N
→ 1.3% | -5% | -1 | -1%
CN(C)C(=O)CCc1ccc2c3c([nH]c2c1)[C@]1(C)[C@@H](C(=O)N2CCCCC2)C[C@H](CC(=O)NCc2cccc(C(F)(F)F)c2)C(=O)N1CC3
→ -2.2% | -21% | x | x
Cc1cc(NC(=O)COc2cccc([N+](=O)[O-])c2)no1
→ 1.8% | 4% | x | -10%
C/C(N)=C(/C#N)C(=O)CSc1nnc(Nc2ccccc2C)s1
→ -3.2% | -2% | -27 | -44%
COC(=O)CCC(=O)OC1(C)C(=O)C=C2C=C(C3CC3)N(Cc3ccccc3)C=C2C1=O (configuration not stated)
→ u | u | 4&-15 | 0%
CCOC(=O)C1CCCN(S(=O)(=O)c2ccc3ccccc3c2)C1 (configuration not stated)
→ 0.4% | -14% | x | 6%
CCCNC(=O)COc1ccc(-c2nn(C)c(=O)c3ccccc23)cc1
→ -1.0% | 0% | x | 20%
O=C(c1ccco1)N1CCN(C(=O)C(Sc2ccccc2)c2ccccc2)CC1 (configuration not stated)
→ u | 12% | -1 | 2%
O=C(CSc1nnc2n1CCCN2)c1ccccc1
→ 6.5% | 1% | 2 | -53%
O=C(NCc1csc(-c2cccs2)n1)Nc1ccc(C(F)(F)F)cc1
→ u | -1% | -8 | -10%
CSc1nc(Cl)c(Cc2ccc(OC(C)C)cc2)c(N(C)C)n1
→ 0.9% | 2% | -9 | 2%
Cc1nn(-c2ccccc2)c(N)c1C(O)(C(F)(F)F)C(F)(F)F
→ 0.6% | 7% | 0 | -15%
Cc1cc(C(=O)COC(=O)C23CC4CC(CC(O)(C4)C2)C3)c(C)n1C
→ -1.5% | -5% | x | x
COc1ccc(C)cc1S(=O)(=O)N(C)CC(=O)Nc1ccccc1
→ -1.5% | -11% | -9 | -7%
Cc1csc(NC(=O)CSc2nnc(Cc3cccn3C)n2CCc2ccccc2)n1
→ -5.4% | -16% | 6 | 0%
O=C(CCNC(=O)C1CCN(S(=O)(=O)c2ccc(F)cc2)CC1)NCc1ccccc1Cl
→ -1.5% | -11% | x | -1%
COc1ccc(CC(=O)N(C)CC(=O)Nc2c(C)cccc2C)cc1S(=O)(=O)N1CCOCC1
→ 2.5% | u | x | x
O=C(c1cc2ccccc2oc1=O)N1CCN(c2ccc(N3CCOCC3)nn2)CC1
→ -1.3% | 13% | -5 | 0%

Single records (already shown). Order of values: Rango-impB inh	Rango release inh	GLA inh pH 4.5	miR-21 reporter
Shown for `O=C(CCNC(=O)C1CCN(S(=O)(=O)c2ccc(F)cc2)CC1)NCc1ccccc1Cl` : -1.5%	-11%	x	-1%
Shown for `CCOC(=O)C1CCCN(S(=O)(=O)c2ccc3ccccc3c2)C1` (configuration not stated) : 0.4%	-14%	x	6%
Shown for `COC(=O)CCC(=O)OC1(C)C(=O)C=C2C=C(C3CC3)N(Cc3ccccc3)C=C2C1=O` (configuration not stated) : u	u	4&-15	0%
Shown for `C/C(N)=C(/C#N)C(=O)CSc1nnc(Nc2ccccc2C)s1` : -3.2%	-2%	-27	-44%

Ordered by molecular weight (highest first): some entries from above.
Value order: Rango-impB inh | Rango release inh | GLA inh pH 4.5 | miR-21 reporter
Cc1csc(NC(=O)CSc2nnc(Cc3cccn3C)n2CCc2ccccc2)n1
→ -5.4% | -16% | 6 | 0%
O=C(c1ccco1)N1CCN(C(=O)C(Sc2ccccc2)c2ccccc2)CC1 (configuration not stated)
→ u | 12% | -1 | 2%
CCOC(=O)C1CCCN(S(=O)(=O)c2ccc3ccccc3c2)C1 (configuration not stated)
→ 0.4% | -14% | x | 6%

(continued)
Value order: Rango-impB inh | Rango release inh | GLA inh pH 4.5 | miR-21 reporter
CC(C)CC(=O)Nc1cccc2c1C(=O)N(c1ccccc1)C2=O
→ -0.3% | 15% | 3 | -5%
COc1ccc([C@@H]2[C@H]3CN(C(C)=O)CC=C3C(C#N)=C(N)C2(C#N)C#N)c2ccccc12
→ u | -22% | 15 | -12%
CC(=O)CC(C)(C)Nc1nc2cc([N+](=O)[O-])ccc2o1
→ 3.0% | 5% | -8 | -12%
Cn1c(Cn2cnc3ccccc32)nnc1SCc1ccccc1
→ -5.4% | 4% | -1 | 0%
COC(=O)c1c(C)[nH]c(C(=O)CN(C)CC(=O)Nc2cccc(F)c2)c1C
→ -1.4% | 2% | x | x
CCOc1ccc(C(=O)NN2C(=S)NC(C)(C)C=C2C)cc1
→ 7.6% | 1% | 0 | -21%
Cc1ccccc1CNC(=O)c1ccccc1C
→ -3.9% | 11% | 10 | -2%
Cc1nn(CC(=O)NCCc2ccccc2)c(=O)c2cccn12
→ 8.9% | -13% | x | -2%
O=C(O)CSCc1nc2ccccc2s1
→ 3.9% | 0% | -6 | -13%
Cc1ccc(-n2nc3c(=O)n(CCCC(=O)NCc4ccc(C)o4)nc(C)c3c2C)cc1
→ 0.0% | -28% | x | 1%
CC(C)(C)c1ccc(C(=O)NCC(=O)OCC(=O)c2ccc3c(c2)-c2ccccc2C3)cc1
→ 0.1% | -7% | 2 | -12%
Cc1nnc(Sc2c(N)n(C)c(=O)n(C)c2=O)s1
→ -1.4% | 24% | -8 | 2%
CC(=O)C(C(c1ccccc1)N1CCOCC1)N1CCOCC1 (configuration not stated)
→ 0.1% | -13% | x | x
CCN(Cc1ccncc1)Cc1cn[nH]c1-c1ccc(OC)cc1F
→ -0.6% | -4% | -5 | -1%
CCCOC(=O)c1ccc(OCC(O)CN2CCN(C(=O)c3ccccc3)CC2)cc1 (configuration not stated)
→ -6.6% | 24% | -3 | 3%
C/C(CC(=O)NC12CC3CC(CC(C3)C1)C2)=N\NC(=O)c1ccc(F)cc1
→ -4.8% | 15% | x | -17%
CCN(C(=O)CN1C(=O)/C(=C/c2ccccc2F)SC1=S)C1CCS(=O)(=O)C1 (configuration not stated)
→ 0.2% | -6% | x | 1%
CCOc1ccc(CNc2ncnc(N)n2)cc1
→ -1.3% | 1% | 3 | -9%
O=C(NC1CCCc2ccccc21)C1CCC(CNc2c(N3CCOCC3)c(=O)c2=O)CC1 (configuration not stated)
→ -1.0% | 1% | 6 | -6%
CCN1CCCC1CNC(=O)c1cc(S(N)(=O)=O)ccc1OC (configuration not stated)
→ -1.5% | 1% | -1 | x
O=c1c2ccccc2sn1-c1ccc(S(=O)(=O)N2CCCCC2)cc1
→ -0.7% | -4% | x | x
O=C(CNC(=O)C1COc2ccccc2O1)N/N=C/c1ccc(O)cc1O (configuration not stated)
→ -0.6% | 3% | -9 | 24%
CC(=O)N1CCN(c2ccc(Nc3nc(C)nc4c3oc3ccccc34)cc2)CC1
→ 2.5% | -6% | 3 | 20%
COc1ccccc1CN1CCc2c([nH]c3ccccc23)C1
→ -0.3% | -16% | x | 0%
COc1cccc(Nc2nnc(SCC(=O)Nc3sccc3C(N)=O)s2)c1
→ 1.8% | -6% | 2 | 23%
NC(=O)c1ccsc1NC(=O)c1ccc(S(=O)(=O)N2CCCC2)cc1
→ 0.9% | -13% | 3 | -11%
Cc1cc(Br)cc(C)c1NC(=O)c1ccc(C#N)cc1F
→ -1.8% | -10% | 2 | 3%
Cc1cc(OCC(=O)Nc2nnc(C3CC3)s2)ccc1[N+](=O)[O-]
→ -0.6% | 0% | 3 | -2%
CN1N=C(C(=O)N2CCN(c3ccc([N+](=O)[O-])cc3)CC2)CCC1=O
→ 0.9% | u | -14 | 7%
Cc1ccc(S(=O)(=O)Cc2c(C)noc2C)cc1
→ -3.7% | 13% | 4 | 0%
O=C(OCC(=O)N1CCN(C(=O)c2ccco2)CC1)c1sc2cc(F)ccc2c1Cl
→ -0.1% | 2% | -10 | 5%
Cc1ccc(S(=O)(=O)N2CCOCC2)cc1NC(=O)CSc1nccn1C
→ 0.0% | -7% | 4 | -7%
CCOC(=O)c1cc2c(=O)n3cccc(C)c3nc2n(CCCOC)c1=NC(=O)c1cccnc1
→ u | u | 15 | -4%
CC(C)c1ccc(S(=O)(=O)c2n[nH]n3c2nc(=O)c2ccccc23)cc1
→ -4.1% | -2% | 2 | -3%
COc1ccc(CCNC(=O)c2sc3ccccc3c2Cl)cc1OC
→ -1.9% | 2% | -11 | -19%
CCc1nc2ccccc2n1Cc1ccccc1F
→ -1.9% | -1% | 3 | -4%
Cc1cccc(-c2cc3nc(-c4ccccc4)cc(N4CCC5(CC4)OCCO5)n3n2)c1
→ -1.9% | -13% | u | 9%
CCCOc1ccc(/C=N/NC(=O)c2nnn(-c3nonc3N)c2-c2cccs2)cc1OC
→ 5.0% | -2% | x | -3%
Cc1cc(NS(=O)(=O)c2ccc(CC(C)C)cc2)no1
→ 5.0% | 30% | -6 | -14%
O=C(NCC1(N2CCCCC2)CCCCC1)c1ccc(NS(=O)(=O)c2ccc(F)cc2)cc1
→ -2.6% | -11% | x | x
COc1ccc(CN(C)C(=O)c2ccc(NS(=O)(=O)c3ccc(F)cc3)cc2)c(OC)c1OC
→ 0.3% | -10% | x | 7%
O=C1N=C(N2CCCCC2)SC1=C1CCCC1
→ 1.2% | -1% | 6 | -44%
COc1cccc(-c2c[nH]c(=O)[nH]c2=O)c1
→ 0.1% | 2% | 0 | -6%
FC(F)(F)c1cccc(N2CCN(C(=S)NC3CCCCC3)CC2)c1
→ 1.9% | 26% | -8 | 6%
Cc1c(CCC(=O)O)c(=O)n2c([nH]c3ccccc32)c1C#N
→ -2.2% | -26% | u | -3%

Single values from above:
For GLA inh pH 4.5, `CCOC(=O)c1cc2c(=O)n3cccc(C)c3nc2n(CCCOC)c1=NC(=O)c1cccnc1` has 15
For Rango-impB inh, `COc1ccc(CN(C)C(=O)c2ccc(NS(=O)(=O)c3ccc(F)cc3)cc2)c(OC)c1OC` has 0.3%
For Rango release inh, `O=C(OCC(=O)N1CCN(C(=O)c2ccco2)CC1)c1sc2cc(F)ccc2c1Cl` has 2%

(further entries)
Value order: Rango-impB inh | Rango release inh | GLA inh pH 4.5 | miR-21 reporter
Cc1ccc(C(CNC(=O)Nc2ccccc2)N2CCN(C)CC2)cc1 (configuration not stated)
→ -1.0% | 18% | x | -7%
CCOC(=O)c1c(-c2ccccc2)oc2ccc(OC)cc12
→ -0.3% | 15% | 7 | 1%
CCCCCOc1ccc(N2C(=O)C3C4C=CC(C3C2=O)N(C)C4=O)cc1 (configuration not stated)
→ -3.0% | -19% | 1 | -8%
Cc1cccc(C)c1NC(=O)CCCSc1nnc(-c2ccc(Cl)cc2)n1-c1ccccc1
→ -0.2% | -2% | -2 | 18%
O=C(CSc1nc2ccccc2o1)N1c2ccccc2Sc2ccccc21
→ -5.1% | 8% | -15 | 1%
CCC(NS(=O)(=O)c1cn(C)nc1C)c1ccccc1 (configuration not stated)
→ 2.3% | 7% | 6 | 0%
COc1ccc(CNc2ncc(-c3ccccc3)n2C)c(OC)c1OC
→ 0.5% | 2% | x | -5%
CC(=O)Nc1ccc(NC(=O)CN(c2ccc([N+](=O)[O-])cc2)S(=O)(=O)c2ccccc2)cc1
→ 0.0% | 15% | -3 | -1%
COc1cc(NS(=O)(=O)c2ccc(F)cc2)c(C(=O)O)cc1OC
→ -4.5% | 25% | 3 | 0%

Assay outcomes (PubChem)

A portion of the library (hit frequency here may not be typical).
